Screens (PubChem)
gsp agonist: qHTS for Agonist of gsp, the Etiologic Mutation Responsible for Fibrous Dysplasia/McCune-Albright Syndrome: qHTS; gsp mutant cells, cAMP HTRF, 30 min; control for the full effect not named in the record; Potency, µM (doses to about 76.9 µM), inactives show top-dose activation (cAMP increase), most hits filed as activators; hit rate 0.13% among 340,000; active = well fitted activation curve with a large enough effect; inconclusive = small, poorly fitted or top-dose-only effect, or another doubt; inactive = no such curve, though single readings can be large or run the other way; cell line not stated here;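 note: phosphodiesterase inhibitor Ro 20-1724 added with compounds to block cAMP breakdown; potency is the fitted concentration of half-maximal effect; nearly all actives have a fitted effect of over 60% in size; about a fifth of the inactives were tested at one dose only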
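Cells stably selected in G418 were plated at 2000/well, grown 16-24 hr, then given compounds in DMSO with the PDE inhibitor […] (300 uM solution added) for 30 min at 37C; cAMP was read by HTRF.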
Sfp PPTase inh: qHTS Assay for Inhibitors of Bacillus subtilis Sfp phosphopantetheinyl transferase (PPTase); 4'-phosphopantetheinyl transferase ffp (Bacillus subtilis), Q9F4F7; Biochemical Sfp PPTase activity, qHTS; Potency, µM, inactives show max response, negative = inhibition, actives largely listed as inhibitors; hit rate 3.5% among 310,000; active = well fitted inhibition curve with a large enough effect; inconclusive = small, poorly fitted or top-dose-only effect, or another doubt; inactive = no such curve, though single readings can be large or run the other way;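 note: the enzyme is Sfp with the accession as filed and its product quenches rhodamine fluorescence; potency is the fitted concentration of half-maximal effect; 0% = enzyme reaction without inhibitor and -100% = no enzyme wells; top concentration of the series not given in the record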
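Fluorescence-quenching assay: 15 nM Sfp-PPTase preincubated 15 min at room temperature with compound, then 5 uM rhodamine-CoA and 12.5 uM BHQ-2-labelled YbbR peptide added. Fluorescence (ex 525/em 598 nm) read at start and after 30 min; difference gives rate.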
gsp antagonist: qHTS for Antagonists of gsp, the Etiologic Mutation Responsible for Fibrous Dysplasia/McCune-Albright Syndrome: qHTS. gsp-mutant cells, cAMP HTRF, 30 min; control for the full effect not named in the record. Potency, µM (top dose mostly 76.9 µM), without a hit: at the highest dose activity change, negative = inhibition, actives largely listed as inhibitors. hit rate 0.4% among 340,000. AID 624288, 2012; active = falling curve of any shape with a large fitted effect; inconclusive = falling curve, mostly with a smaller effect; inactive = flat or rising curve; cell line not stated here;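 note: intracellular cAMP measured with PDE inhibitor Ro 20-1724 present during compound exposure; potency is the fitted concentration of half-maximal effect; % is set by controls: 0 for no effect and ±100 for the full control effect; nearly all actives have a fitted effect of over 65% in size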
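G418-selected cells were plated in DMEM/10% FBS for 16-24 h at 37C, then treated with compounds plus the PDE inhibitor […] (300 uM solution added) for 30 min at 37C. Intracellular cAMP was measured by HTRF after 30 min lysis at room temperature.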
ClpP mod: qHTS Assay for Activators of ClpP; hit rate 1.9% among 340,000; purified B. subtilis ClpP, FRET peptide cleavage, 20 min; Potency, µM (doses to about 57.5 µM), inactives show at the highest dose activity change, negative = active; ATP-dependent Clp protease proteolytic subunit (Bacillus subtilis (strain 168)), P80244; AID 651965, 2013; active = well fitted falling curve with a large enough effect; inconclusive = small, poorly fitted or top-dose-only effect; inactive = no such curve, though single readings can be large or run the other way; note: potency is the fitted concentration of half-maximal effect; the source files actives as falling curves though it sought activators and does not explain the sign; nearly all actives have a fitted effect of over 65% in size; many hits overshoot -100%
Target sequence (P80244 whole entry, looked up): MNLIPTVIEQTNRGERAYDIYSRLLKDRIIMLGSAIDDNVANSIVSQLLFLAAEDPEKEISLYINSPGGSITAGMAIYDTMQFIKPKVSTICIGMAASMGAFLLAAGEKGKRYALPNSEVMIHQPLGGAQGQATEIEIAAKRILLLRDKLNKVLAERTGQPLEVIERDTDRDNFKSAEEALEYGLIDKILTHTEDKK
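Buffer: 100 mM Tris/HCl pH8, 100 mM KCl, 0.05% low protease BSA, 2.5% glycerol, 0.01% Tween-20. ClpP 10 microg/mL final; 20 min RT; delta FRET normalized to ADEP and DMSO controls.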
PINK1 expr mod: A Quantitative High throughput Screen to Identify Chemical Modulators of PINK1 Expression | PINK1 immunofluorescence, high-content cytometry, 24 h | Potency, µM (series often up to 76.6 µM), for the others: at the highest dose activation (PINK1 increase), hits mostly activators | hit rate 0.2% among 410,000 | AID 624263, 2012; active = well fitted activation curve with a large enough effect; inconclusive = small, poorly fitted or top-dose-only effect; inactive = flat fitted curve, though single readings scatter; cell line not stated here;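 note: potency is the fitted concentration of half-maximal effect; % of control where 0% means no effect; nearly all actives have a fitted effect of over 65% in size; a mitochondrial uncoupler was the plate control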
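Compound titrations (5 concentrations, 24 h) on a stable cell line; DMSO and CCCP controls. Endpoint: fixed-cell PINK1 immunofluorescence with mitochondrial, cell and nuclear markers, scanned by microplate cytometer.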
Menin-MLL FL inh: qHTS Assay for Inhibitors Targeting the Menin-MLL Interaction in MLL Related Leukemias: Competition With Fluorescein Labeled MLL-derived Peptide. AID 1766, 2009. Fluorescence polarization, fluorescein-MLL peptide displacement from menin. FP activity change, % at 61.4 µM. 290,000 tested, under 10 active; inconclusive = falling polarisation curve, or a change in total fluorescence; inactive = total fluorescence flat and polarisation flat or rising; no compound was filed as active; the % refers to the polarisation; negative = inhibition;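 note: % of control where 0% means no effect; inhibitors lower the polarisation; unlabelled MLL peptide was the positive control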
D2 ag: Beta-Arrestin HTS for Positive Allosteric Modulators of the Human D2 Dopamine Receptor: Agonists | D(2) dopamine receptor (Homo sapiens), P14416 | hit rate 0.084% among 360,000 | DiscoveRx PathHunter D2 beta-arrestin, luminescence, 90 min; 100% = 57 uM dopamine signal | activation, % (test concentration not listed); in the data active = activation above about 40%; inconclusive = about 15% to 40%; inactive = below about 15%; note: compound concentration not given in the record; the text of the record calls up to 30% inactive
Target sequence (P14416 whole entry, looked up): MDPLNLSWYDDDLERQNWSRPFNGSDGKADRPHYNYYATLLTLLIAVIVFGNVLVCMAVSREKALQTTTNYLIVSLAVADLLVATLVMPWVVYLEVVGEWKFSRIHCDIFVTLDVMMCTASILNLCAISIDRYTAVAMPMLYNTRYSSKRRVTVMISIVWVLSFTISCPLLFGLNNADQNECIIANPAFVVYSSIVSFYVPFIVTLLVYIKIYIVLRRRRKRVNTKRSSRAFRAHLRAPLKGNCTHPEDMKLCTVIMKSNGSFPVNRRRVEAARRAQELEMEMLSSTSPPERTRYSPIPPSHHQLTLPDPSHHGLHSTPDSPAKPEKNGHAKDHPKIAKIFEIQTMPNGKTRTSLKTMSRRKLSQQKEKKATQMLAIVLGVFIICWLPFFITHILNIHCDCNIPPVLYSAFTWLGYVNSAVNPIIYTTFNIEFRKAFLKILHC
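Agonist mode: compounds alone added to overnight-plated D2 PathHunter cells for 90 min at 37 C, with 57 uM final dopamine (EC100) defining full response. Beta-arrestin recruitment detected by chemiluminescent reagent, read after 1 h at ambient temperature.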
* hit, by the source's call; ? = inconclusive; . = no result given; & = joins results of further samples; [ ] = remark or other dose.

SMILES	gsp agonist	Sfp PPTase inh	gsp antagonist	ClpP mod	PINK1 expr mod	Menin-MLL FL inh	D2 ag
Cc1[nH]c2ccccc2c1/C=N/Nc1cccc(C(=O)O)c1	30%	0%	8%	-13%	0.1%	?	-2.0
COc1ccc(-c2nc3cnc(Nc4cccc(OC)c4)nc3n(C[C@H]3CCCO3)c2=O)cc1	.	-14%	.	.	25µM*	?	.
CN1c2ccccc2Oc2c(c(=O)n(C)c(=O)n2C)C1c1cccc([N+](=O)[O-])c1 (stereo unspecified)	3%	8%	-1%	-3.6%	-2.0%	-1.1	1.0
CCn1nc(C)c(CNC(=O)C2CCC(=O)N(Cc3cccc(F)c3)C2)c1C (stereo unspecified)	-18%	-2%	6%	-18%	-2.3%	4.5	-3.3
Nc1nc(SCc2ccccc2)c2[nH]cnc2n1	?	14%	10%	-2.1%&-0.6%	1.2%&0.8%	5.4	-5.1
O=S(=O)(NCC(c1cccnc1)N1CCOCC1)c1ccc(Cl)cc1 (stereo unspecified)	26%	10%	7%	1.0%	-0.5%	-1.1	-3.7
Cc1ccccc1-c1nc(S(=O)(=O)c2ccccc2)c(NCCCN2CCOCC2)o1	9%	.	-10%	-5.5%	0.5%	.	-0.7
COc1ccccc1NC(=O)CCc1nc(-c2cccs2)no1	4%[15.4 µM]	9%	-1%	-4.6%	-0.3%	1.6	-0.5
CN(C)c1ccc(CN(C(=O)COc2ccc(Br)cc2)C2CCS(=O)(=O)C2)cc1 (stereo unspecified)	?	-2%	-18%	-0.5%	32%[38.3 µM]	2.2	-3.8
N/C(=N\OC(=O)c1ccc2c(c1)OCO2)c1cccnc1	4%	5%	9%	0.9%	-1.1%	-2.3	?
CC(=O)c1c(C)[nH]c(C(=O)OCC(=O)Nc2sc3c(c2C#N)CCCC3)c1C	18%	-16%	?	?	1.4%	9.3	6.7
CN1C(=O)N(C)c2ccc(Br)c3cccc1c23	28%	-2%	1%	-1.7%	0.0%	-0.1	-0.7

Reprinted from the part before: three entries, followed by the next part.
SMILES	gsp agonist	Sfp PPTase inh	gsp antagonist	ClpP mod	PINK1 expr mod	Menin-MLL FL inh	D2 ag
N/C(=N\OC(=O)c1ccc2c(c1)OCO2)c1cccnc1	4%	5%	9%	0.9%	-1.1%	-2.3	?
CC(=O)c1c(C)[nH]c(C(=O)OCC(=O)Nc2sc3c(c2C#N)CCCC3)c1C	18%	-16%	?	?	1.4%	9.3	6.7
CN1C(=O)N(C)c2ccc(Br)c3cccc1c23	28%	-2%	1%	-1.7%	0.0%	-0.1	-0.7
CC(C)CNC(=O)c1ccccc1NC(=O)CN(c1ccc2c(c1)OCCO2)S(C)(=O)=O	6%	15%	4%	-6.1%	.	0.5	-2.1
Cc1ccc(-n2ncc3c(=O)n(CC(=O)NC4CCCC4)cnc32)cc1C	0%	14%	21%	-3.8%	1.7%	3.7	0.2
Cc1ccc(C)c(OCC(=O)N2CCOCC2)c1	-14%	-9%	1%	0.5%	2.6%	1.7	-5.4
O=C(CN1C(=O)c2ccccc2S1(=O)=O)NCc1ccc(F)cc1	8%[15.4 µM]	10%	16%	0.6%	0.6%	.	-3.9
N#CCc1ccc(C(=O)c2ccccc2F)s1	-21%	-10%	6%	0.9%	0.0%	31[activator]	-2.7
C#CCN1N=C(c2ccc(C)cc2)CSC1=O	-7%	.	5%	-1.9%	0.3%	.	-3.9
C[n+]1c2n(c3ccccc31)N=C(c1cc(C(C)(C)C)c(O)c(C(C)(C)C)c1)CS2	19%	-15%	-3%	.	-1.9%	-2.2	-5.9
CCOC(=O)N1CCC(NC(=O)c2ccc(CS(=O)c3cccc(C)c3)o2)CC1 (stereo unspecified)	-4%	20%	1%	0.5%	1.5%	.	0.6
COc1ccc2cc(-c3[nH]ncc3CN3CCCN(c4ccccc4)CC3)ccc2c1	-6%	-2%	-16%	-3.8%	-1.2%	-1.9	2.0
O=c1c2ccccc2cnn1CCOc1ccccc1	-37%[inhibitor]	12%	11%	0.7%	-1.2%	5.2	-1.2
O=C(c1c[nH]c2ccc(S(=O)(=O)N3CCOCC3)cc2c1=O)N1CCCC1	?	14%	7%	7.9µM*	1.5%	0.2	-1.4
Cc1ccc(N(C(=O)c2csnn2)C(C(=O)NCc2ccccc2)c2ccccn2)cc1 (stereo unspecified)	-7%[15.4 µM]	18%	-2%	-1.1%	1.5%	0.7	-1.4
CN1C2C=CC(=O)C1C1C(=O)N(c3ccccc3)C(=O)C12 (stereo unspecified)	.	.	.	-1.8%	2.2%	.	-2.5
COc1cc(/C=C/C(=O)OCC(=O)Nc2nnc(-c3ccccc3)o2)cc(OC)c1OC	-4%	.	-16%	18µM*	0.2%	.	-1.4
Cc1nc2ccccc2c(=O)n1NC(=O)c1ccccc1F	9%	8%	-6%	-1.8%	1.6%	2.3	-5.5
CCOC(=O)C(C)(C)Oc1cccc2c1S(=O)(=O)c1ccccc1-2	1%[15.4 µM]	.	-2%	1.2%	0.8%	.	-5.0
COc1cccc(C(C2=C(O)CC(C)(C)CC2=O)C2C(=O)CC(C)(C)CC2=O)c1 (stereo unspecified)	1%[15.4 µM]	-17%	6%	-2.6%	0.7%	4.2	-3.7
O=C(CCn1nnc2ccccc21)OCC(=O)c1ccc([N+](=O)[O-])cc1	-32%[inhibitor]	31%[activator]	6%	.	1.5%	2.2	5.8
CCOC(=O)c1cnc2c(C)c(Cl)ccc2c1N1CCOCC1	?	10%	7%	0.1%	0.5%	-0.4	2.8
O=C(COC(=O)c1ccc(S(=O)(=O)Nc2ccccc2)cc1)NC1CCCC1	1%[15.4 µM]	5%	-11%	.	-1.3%	-1.1	0.7
CCCN1Cc2cccc(C(=O)Nc3ccc4c(c3)OCO4)c2C1=O	-41%[inhibitor]	0%	13%	-0.4%	0.6%	2.6	-1.2
CCCn1c(C(C)C)n[nH]c1=S	17%	0%	8%	.	0.2%	2.2	-1.3
CCSc1nnc(C)c2ccccc12	?	20%	-1%	1.9%	-1.9%	2.5	0.3
Nc1ncc2c(n1)CCN(c1ccc([N+](=O)[O-])cc1)C2	0%	4%	-14%	.	-0.9%	?	1.1
N#Cc1cc([N+](=O)[O-])ccc1NCCN1CCOCC1	10%[15.4 µM]	13%	11%	.	-1.0%	1.1	-2.9
CCN(CC)C(=O)COC(=O)C1CCN(S(=O)(=O)c2ccc3c(c2)OCCO3)CC1	-3%	.	-3%	-0.4%	1.1%	.	5.8
Nc1c(C(=O)Nc2ccccc2F)sc2nc(Cc3ccccc3)cc(C(F)(F)F)c12	?	9%	19%	1.8%	?	?	-1.4
Cc1c(Cl)cccc1NC(=O)CCN1CCCCC1	0%	7%	17%	-0.7%	-0.8%	4.2	-0.1
Cc1ccccc1N(Cc1cc(=O)[nH]c2ccccc12)C(=O)C(C)C	2%[15.4 µM]	0%	-30%	-2.3%	2.5%	-3.6	-2.6
COc1ccc(-c2cc(C(=O)N3CCCCCC3)no2)cc1	3%	10%	1%	.	3.8%	6.0	1.5
O=c1c2ccccc2cnn1Cc1n[nH]c(=S)n1-c1ccccc1	?	?	3%	-1.4%	-0.6%	2.5	2.8
COc1ccc(NC(=S)N2CCN(c3ccccn3)CC2)cc1	-34%[inhibitor]	10%	-7%	-14%	-2.2%	2.5	-2.0
Cc1noc(C)c1CSc1nc2ccccc2n1CCc1ccccc1	-4%	?	-12%	-1.8%	13%[38.3 µM]	1.9	-1.6
O=C(CN(C(=O)CCC(=O)Nc1ccccn1)c1ccc(F)cc1)NCc1ccc(F)cc1	-2%[15.4 µM]	9%	-11%	.	0.3%	.	3.1
CS(=O)(=O)N(CC(=O)Nc1ccc(S(=O)(=O)N2CCOCC2)cc1)c1ccccc1Cl	22%[15.4 µM]	19%	4%	.	3.3%	-2.1	0.4
N#C/C(=C\c1ccc(-c2ccccc2[N+](=O)[O-])o1)C(=O)Nc1nc(-c2cccs2)cs1	10%	-14%	-10%	-7.6%	1.6%	2.2	-8.5
CCc1ccccc1NC(=O)CN1CCN(C(=O)C(C)NC(=O)c2ccc(Cl)cc2)CC1 (stereo unspecified)	-13%	.	-1%	16µM*	3.1%	.	2.7
CC(C)(C)c1cc(N)n(-c2ccc(C(=O)O)cc2)n1	-1%[15.4 µM]	4%	-15%	.	-1.4%	-1.3	0.9
CCn1c(SCc2ccc(F)cc2)nnc1C1CCN(S(=O)(=O)c2ccc(OC)cc2)CC1	4%	-4%	-28%	-0.4%	-0.4%	2.1	1.9
O=C(COC(=O)c1cc([N+](=O)[O-])ccc1N1CCOCC1)Nc1ccc(Cl)cc1	20%[15.4 µM]	13%	-18%	-2.9%	8.3%	.	1.9
CC(C)(C)NC(=O)C(=O)NNC(=O)COc1ccccc1	21%	-16%	9%	-17%	-0.3%	-0.2	-0.6
Cc1ccc(N(CC(=O)NCc2ccc(Cl)cc2)S(C)(=O)=O)cc1	-7%	10%	9%	0.9%	-1.0%	0.3	-8.0
Cc1ccc(CNc2nc(C)cs2)cc1	-66%[15.4 µM]	1%	3%	.	19%	-1.0	-0.4
CCOCCCNC(=O)CCn1ccc2cc(S(=O)(=O)N3CCCC3)ccc21	2%	6%	7%	-4.9%	0.3%	-6.2	4.1
COc1ccc(CN(C(=O)c2nsc(Cl)c2Cl)C(C(=O)NC2CCCC2)c2ccc(OC)cc2)cc1 (stereo unspecified)	?	11%	-15%	0.1%	4.8%	-0.6	-3.8
